Screening data as filed in PubChem.
A1 inh – caspase 3/7 activation in MEF A1-2A-BIM cells, primary screen, A1 inhibitor project, cell-based, luminescence, HTS; Caspase-Glo 3/7 luminescence, 3 h; percent of clofoctol response, vehicle zero; caspase activation, % (test concentration not listed); hit rate 0.066% among 330,000; AID 2462, 2010;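 active means over half of replicate activation scores above 10%, or exactly half above 10 with the replicate mean above 10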;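 further: wells of about 30 µL received 50 nL stock; many hits fall short of the cut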
Beta apoptosis – inhibitors of cytokine-induced beta cell apoptosis, primary screen, luminescence. INS-1E cytokine-induced death, ATP luminescence, 48 h; percent of positive-control rescue, neutral wells zero. protection from apoptosis, % (concentration not given with the values). hit rate 0.8% among 300,000. AID 435005, 2010;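 active means all replicates at 75% or more, or half of them and the mean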;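 further: 0% = cytokine-treated negative control wells and 100% = positive control rescue; higher means more ATP so stronger rescue from cytokine killing; wells of about 40 µL received 100 nL stock; the first replicate is given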
rRNA inh HTS – reduced GFP signal of wild-type E. coli, primary screen, bacterial rRNA inhibitor project, GFP/RFP fluorescence, OD600, single point | E. coli WT GFP vs humanized-ribosome RFP mutants, 24 h; stronger effect = lower value; DMSO median 0, no signal -100 | GFP signal change (wild-type ribosome), % (no concentration beside the values) | hit rate 1.6% among 350,000 | AID 720706, 2013;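 active means significant combined selectivity score with lowered wild-type GFP, culture density cut under 30%, mutant RFP and density less affected; inactive means any of these conditions unmet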; further: one replicate is shown; some compounds called inactive have numbers as strong as hits
E coli growth – E. coli growth inhibition, primary screen, OD600. OD600 absorbance (test concentration not listed). AID 1053175, 2014. Escherichia coli growth, 23 h; stronger effect = lower value. hit rate 0.21% among 330,000;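 active means OD600 absorbance below the run mean of sample wells minus 3.6 SD, in any replicate, cut at about 0.56 in these data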;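 further: stock transfer was 300 nL into about 60 µL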
UCH37 DUB inh – inhibitors of human UCH37 deubiquitinase, primary screen, biochemical, Ub-AMC cleavage, fluorescence. purified proteasome/UCH37. hit rate 0.33% among 330,000. Ubiquitin carboxyl-terminal hydrolase isozyme L5 (Homo sapiens), Q9Y5K5. AID 588478, 2011. inhibition, % (concentration not given with the values);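 active means mean of two replicates above 20%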;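 further: 0% = compound-free wells with enzyme and 100% = wells lacking proteasome; stock transfer was 100 nL into about 20 µL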
Target sequence (Q9Y5K5 whole entry, looked up): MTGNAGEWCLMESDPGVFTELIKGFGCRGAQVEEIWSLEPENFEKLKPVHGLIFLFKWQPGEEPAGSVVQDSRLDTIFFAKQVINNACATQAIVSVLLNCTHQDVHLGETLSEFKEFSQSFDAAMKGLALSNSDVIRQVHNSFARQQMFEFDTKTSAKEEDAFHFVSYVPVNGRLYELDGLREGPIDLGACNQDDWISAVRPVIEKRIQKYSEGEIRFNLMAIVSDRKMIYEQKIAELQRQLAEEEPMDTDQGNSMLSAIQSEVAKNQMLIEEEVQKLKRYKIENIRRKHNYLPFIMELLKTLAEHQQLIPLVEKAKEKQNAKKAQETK
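Reagent: Ub-AMC substrate; assay system: Proteasome-associated human UCH37 deubiquitinase; controls: no-proteasome and no-compound wells; read-out: % inhibition of Ub-AMC cleavage fluorescence; timing: 30 min preincubation with enzyme, 25 min cleavage at room temperature; signal: AMC fluorescence from Ub-AMC cleavage, excitation 355 nm, emission 460 nm; buffer or medium: Tris-HCl pH 7.4 plus ovalbumin, ATP-MgCl2, DTT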
T cruzi repl – inhibitors of intracellular T. cruzi growth, primary screen, luminescence, NIH3T3 host cells; T. cruzi beta-gal in NIH3T3, 90 h; hit rate 1.4% among 300,000; inhibition, % (test concentration not listed);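 active means mean inhibition across valid replicates above about 55%, limit read from the data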;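 further: signal also drops with host cell toxicity which is not excluded here; 0% = plate median of DMSO wells and 100% = zero luminescence signal; higher percent means less beta-gal luminescence so fewer parasites; stock transfer was 50 nL into about 50 µL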
FGF22 binding – binders of human FGF22 protein, primary screen, FGF22 synaptogenesis inhibitor project, biophysical, thermal shift, single point; recombinant FGF22 thermal shift, SYPRO orange fluorescence; percent of sucrose octasulfate shift, DMSO zero; hit rate 1.5% among 340,000; calls only at 9.99 µM; AID 651658, 2012;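 active means melting point raised past a set limit in the mean and every replicate; three in four hits are not shown here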
Target sequence (Q9HCT0 whole entry, looked up): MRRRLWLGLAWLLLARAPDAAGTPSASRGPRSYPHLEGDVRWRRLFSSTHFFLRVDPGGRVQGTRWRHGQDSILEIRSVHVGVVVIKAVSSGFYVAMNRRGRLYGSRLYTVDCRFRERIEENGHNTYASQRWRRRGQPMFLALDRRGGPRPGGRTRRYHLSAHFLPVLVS
AF4-AF9 inh – inhibitors of AF4 peptide binding to AF9, primary screen, biochemical, AlphaScreen, biotin-AF4 peptide, FLAG-AF9, single point | Protein AF-9 (Homo sapiens), P42568 | inhibition, % at 10 µM | hit rate 0.47% among 350,000 | AID 651704, 2012;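 active means every replicate reaching a set inhibition limit, whatever the replicate mean, cut at about 25% in these data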;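 further: 0% = plate neutral control median and 100% = total signal loss; the record names both 10 and 1 µM as test concentration; the first replicate is given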
Target sequence (P42568 whole entry, looked up): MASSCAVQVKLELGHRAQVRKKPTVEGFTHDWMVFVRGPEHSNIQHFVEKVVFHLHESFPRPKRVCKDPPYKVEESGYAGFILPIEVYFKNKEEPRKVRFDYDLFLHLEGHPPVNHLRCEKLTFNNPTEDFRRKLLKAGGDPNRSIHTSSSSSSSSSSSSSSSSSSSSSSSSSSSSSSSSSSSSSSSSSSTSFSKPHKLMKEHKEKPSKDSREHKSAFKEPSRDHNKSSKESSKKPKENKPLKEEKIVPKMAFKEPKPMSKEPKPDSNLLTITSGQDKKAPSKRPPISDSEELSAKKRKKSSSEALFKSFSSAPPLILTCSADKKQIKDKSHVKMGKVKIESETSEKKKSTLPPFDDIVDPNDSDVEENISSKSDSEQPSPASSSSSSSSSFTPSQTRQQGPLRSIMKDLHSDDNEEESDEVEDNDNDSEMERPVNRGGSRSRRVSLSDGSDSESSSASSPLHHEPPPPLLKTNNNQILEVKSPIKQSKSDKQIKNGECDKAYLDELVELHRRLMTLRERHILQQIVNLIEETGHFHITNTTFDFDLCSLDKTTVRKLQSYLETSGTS
rRNA inh HTS OD600 – further read-out of rRNA inh HTS, marked with its call; OD600 change, %; measured here: OD600 growth;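 optical density of the mix in the first replicate; 0 = DMSO median and -100 = no signal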
rRNA inh HTS RFP – further read-out of rRNA inh HTS, marked with its call; RFP signal change, %; measured here: RFP humanized mutant strains;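 first replicate; 0 = DMSO median and -100 = no signal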
Starred values were filed as active, the others as inactive; i = inactive; x = no result given.

SMILES	A1 inh	Beta apoptosis	rRNA inh HTS	rRNA inh HTS OD600	rRNA inh HTS RFP	E coli growth	UCH37 DUB inh	T cruzi repl	FGF22 binding	AF4-AF9 inh
COc1ccccc1C(=O)N1C(CC(=O)Nc2cc(Cl)ccc2C)C(=O)NC2CCCCC21 (centres undefined)	0.3	x	x	x	x	0.66	2.0	-5	x	x
Cc1ccccc1/C=C1\OC(=O)c2ccccc21	-0.8	-6	x	x	x	0.67	-18	-4	x	x
O=C(/C=C/c1ccccc1[N+](=O)[O-])NCCCn1ccnc1	1.1	-1	16	16	0.5	0.68	6.6	3	i	1.5
O=C(CCCN1C(=O)/C(=C\c2ccco2)SC1=S)Nc1ccc2ccccc2c1	1.2	-8	x	x	x	0.72	1.8	-7	i	1.6
CCC(=O)N1CC2(CC(c3cccc(NC(=O)CC(c4ccccc4)c4ccccc4)c3)=NO2)C[C@H]1C(N)=O (some centres undefined)	-1.3	1	-4	-12	13	x	-0.4	0	i	-56
CC(NC(=O)CSc1ncccn1)c1ccccc1 (centres undefined)	0.2	2	10	4	4.1	0.68	5.9	-2	i	-15
CC(=O)Nc1ccc(NC(=O)C2CCCN(S(=O)(=O)c3ccc(Cl)cc3)C2)cc1 (centres undefined)	-0.4	-1	7	9	-1.2	0.71	1.6	-7	i	-11
CC(C)(C)OC(=O)N1CCC(Cc2cc(-c3cccnc3)no2)(C(=O)O)CC1	0.5	-12	14	14	3.4	0.7	3.9	-19	i	-3.9
CCC(C)n1c(NC(=O)c2ccccc2)c(C#N)c2nc3ccccc3nc21 (centres undefined)	0.6	19	x	x	x	0.79	-4.0	16	x	x
Cc1ccc(S(=O)(=O)NNC(=O)c2cc(C)cs2)cc1	0.2	-2	1	9	-2.2	0.71	3.6	-16	i	-12
COCCN(C(=O)c1snc(C(N)=O)c1N)C(C(=O)NC1CCCCC1)c1ccc(N(C)C)cc1 (centres undefined)	1.3	-5	7	9	-5.3	0.62	1.1	6	i	2.9
COc1ccc(C(=O)CSc2nnc(-c3cc4ccccc4cc3O)n2Cc2ccco2)cc1	-0.3	-7	x	x	x	0.72	4.2	5	x	x
CCCCNC(=O)N1CCc2ccccc2C1	0.7	-7	14	15	2.7	0.64	3.2	1	i	5.4
O=S(=O)(Nc1ccccc1N1CCCCC1)c1cccs1	-0.3	7	-33*	-10*	-7.1*	0.68	2.8	2	i	-11
COc1cccc(C2=NOC(C(=O)NCc3cccs3)C2)c1 (centres undefined)	-0.1	-18	x	x	x	0.72	2.5	-53	x	x
Cc1ccc([N+](=O)[O-])cc1NC(=O)CN1CCCCC1	0.1	-8	x	x	x	0.65	1.9	-1	x	x
O=C(Nc1ccc(Cl)cc1)N1CCC(CO)(Cc2ccccc2)CC1	0.7	-6	-38	-48	-3.9	0.63	3.5	7	i	-20
Cc1cc(OCC(=O)OCC(=O)c2ccc[nH]2)ccc1Cl	x	x	-2	10	0.2	0.61	0.9	x	i	-6.0
Cc1ccc(S(=O)(=O)N(C)c2ccc(OC(=O)CN3C(=O)NC4(CCCC4)C3=O)cc2)cc1	0.2	x	2	-2	2.2	0.7	-0.3	-24	x	2.0
COc1cc(CN2C(=S)NC(C)(C)CC2(C)O)cc(OC)c1 (centres undefined)	-2.2	0	0	-4	0.4	0.67	2.0	-16	i	-2.3

Record cards, from the list above. Values in the order: A1 inh | Beta apoptosis | rRNA inh HTS | rRNA inh HTS OD600 | rRNA inh HTS RFP | E coli growth | UCH37 DUB inh | T cruzi repl | FGF22 binding | AF4-AF9 inh
COc1cccc(C2=NOC(C(=O)NCc3cccs3)C2)c1 (centres undefined) as listed: -0.1 | -18 | x | x | x | 0.72 | 2.5 | -53 | x | x
O=C(Nc1ccc(Cl)cc1)N1CCC(CO)(Cc2ccccc2)CC1 as listed: 0.7 | -6 | -38 | -48 | -3.9 | 0.63 | 3.5 | 7 | i | -20
O=C(CCCN1C(=O)/C(=C\c2ccco2)SC1=S)Nc1ccc2ccccc2c1 as listed: 1.2 | -8 | x | x | x | 0.72 | 1.8 | -7 | i | 1.6

Next results follow.
SMILES	A1 inh	Beta apoptosis	rRNA inh HTS	rRNA inh HTS OD600	rRNA inh HTS RFP	E coli growth	UCH37 DUB inh	T cruzi repl	FGF22 binding	AF4-AF9 inh
CCS(=O)(=O)CCSc1nc(C)cc(C)n1	0.0	-2	x	x	x	0.69	0.4	-1	x	x
N/C(Cc1ccc([N+](=O)[O-])cc1)=N\OC(=O)COc1ccc2ccccc2c1	-0.3	-4	-9	-3	-3.1	x	x	21	i	4.6
COc1cc(S(=O)(=O)N(Cc2ccc(C)cc2)Cc2ccco2)ccc1-n1cnnn1	0.0	6	x	x	x	0.7	4.3	44	x	x
O=C(c1cc([N+](=O)[O-])cc([N+](=O)[O-])c1)N1CCN(C(=O)c2ccco2)CC1	1.5	-1	15	12	0.7	0.66	7.0	49	i	3.8
Cc1cccc(C(=O)NCC(=O)N2CCN(S(=O)(=O)/C=C/c3ccccc3)CC2)c1	x	x	-7	0	0.9	0.69	0.4	x	i	-0.8
CCOC(=O)C1=C(CC)Nc2ccccc2N=C1NC(=O)Nc1ccccc1OC	0.9	1	x	x	x	0.69	1.5	5	x	x
COc1ccccc1-c1nnc2n1N=C(C)CS2	1.0	-12	x	x	x	0.7	-2.2	-15	x	x
COc1cc(NC(=O)c2ccccc2)c(OC)cc1NC(=O)CN1CCN(c2ccccn2)CC1	1.7	12	x	x	x	0.78	-1.9	18	x	x
Cc1ccc(N2CC(=O)N(c3ccc(C)cc3)CC2=O)cc1	0.5	5	11	10	-0.3	0.68	5.3	-8	i	-5.3
Cc1ccc(C(=O)NCC(=O)OCC(=O)Nc2ccc(Cl)cc2C(F)(F)F)cc1C	-0.6	-5	16	25	3.2	0.67	0.5	-24	i	12
c1nc(NCc2ccc3c(c2)OCO3)c2cc(-c3ccc4c(c3)OCCO4)ccc2n1	0.4	99*	-22	-34	-4.3	0.72	-3.1	x	i	3.9
CCCCn1c(CNC(=O)C23CC4CC(CC(C4)C2)C3)nnc1SCC(=O)Nc1nnc(C)s1	-0.1	3	7	5	-6.0	0.71	5.6	0	i	1.0
N#Cc1nc(Cc2ccccc2)oc1N1CCC(Cc2ccccc2)CC1	-0.2	-3	x	x	x	0.7	-0.5	23	x	x
COc1ccc(NC(=O)c2ccco2)c(NC(=O)c2ccc([N+](=O)[O-])cc2)c1	3.2	5	4	16	-0.1	0.7	6.6	12	i	-0.6
Cc1cc(C)n(CCNC(=O)C2CCC(=O)N(Cc3ccc(Cl)cc3)C2)n1 (centres undefined)	0.5	-1	7	8	1.0	0.66	-0.8	-14	i	-1.0
O=C(N/N=C\c1ccc[nH]1)c1cncc(Br)c1	1.1	-3	0	-4	-1.7	x	x	-16	i	-8.5
COc1ccccc1NS(=O)(=O)c1cccc(C(=O)N2CCCC2)c1	0.3	4	-2	7	-3.3	0.7	5.3	x	i	-12
COc1cccc2c1SCc1ccccc1C2CC(N)=O (centres undefined)	0.2	x	-1	2	0.1	0.7	2.4	-9	i	0.7
CCOC(=O)Cc1nnc(NC(=O)C(CC)Sc2nc(C)cc(C)n2)s1 (centres undefined)	0.9	-4	0	-9	0.6	0.66	1.0	13	i	12
CCOc1ccccc1C(=O)Nc1cc(OC)ccc1OC	0.0	2	x	x	x	0.66	-1.7	33	x	x
CCc1c(C)sc(NC(=O)CSc2nc3c(c(C(F)(F)F)n2)CCc2ccccc2-3)c1C#N	1.5	10	x	x	x	0.74	1.4	10	x	x
O=C(c1ccco1)N1CCN(C2CC(=O)N(c3ccc(C(F)(F)F)cc3)C2=O)CC1 (centres undefined)	-0.1	0	2	3	-0.1	0.6	2.6	3	i	2.3
C=CCN(CC=C)CCOc1cccc2ccccc12	0.3	5	-8	-7	0.5	0.63	1.0	2	i	4.0
CC(C)N(CCCNC(=O)c1ccc(N2CCCC2=O)cc1)Cc1ccccc1	1.7	-2	-22	-26	-8.9	0.67	0.7	-14	i	-13
CCn1c(C)nc2cc(C(=O)NNS(=O)(=O)c3ccc(C)cc3C)ccc21	1.2	-10	x	x	x	0.65	1.2	-6	x	x
COc1ccccc1NC(=O)N1CCCC(c2nc3c(nnn3Cc3ccc(C)cc3)c(=O)[nH]2)C1 (centres undefined)	x	x	x	x	x	0.68	6.4	-6	i	7.0
Cc1ccc(CNCC2CCCO2)s1 (centres undefined)	-1.4	x	x	x	x	0.73	1.9	-4	x	x
CC(=O)N1CCN(c2ccc(NC(=O)c3ccc(C)c([N+](=O)[O-])c3)cc2)CC1	-0.7	x	-2	4	-6.8	0.63	3.2	-8	i	-0.1
Cn1c(SCC(=O)NCc2ccc3c(c2)OCO3)nnc1-c1cc2ccccc2cc1O	0.4	-3	x	x	x	0.71	-2.9	-1	x	x
O=C(Oc1ccc(Br)cc1)C1CC(=O)N(c2ccc(F)cc2)C1 (centres undefined)	1.2	x	-8	1	-1.7	0.72	0.9	-17	i	4.1
COc1ccc2[nH]c(C)c(CN3CCCCC3)c(=O)c2c1	1.0	-6	13	6	-2.8	0.7	-63	2	i	2.7
CCCN(CCC)CC(=O)N1CC(=O)Nc2ccccc21	-0.4	4	-5	-2	-3.7	0.71	3.5	-13	i	-0.1
CCOc1ccc(CC(=O)Nc2c(C(N)=O)oc3ccc(Br)cc23)cc1OCC	0.5	2	1	11	3.1	0.73	3.1	-25	i	-7.3
Cc1nn(Cc2ccc(C(=O)NN)o2)c(C)c1Cl	0.3	-9	-2	-12	-1.7	0.64	2.7	9	i	x
Cc1sc(NC(=S)NC(=O)C2CCCCC2)c(C(N)=O)c1C	0.2	-6	x	x	x	0.72	-2.4	-6	x	x
Nc1nnc(Cc2ccc(F)cc2)s1	0.1	1	5	2	1.9	0.67	3.2	-1	i	3.6
Cc1nn(C)c(Cl)c1CN1CCN(CC(C)C)C(CCO)C1 (centres undefined)	1.7	2	9	9	-1.1	0.69	0.1	-30	i	0.6
O=C1c2ccccc2C(Nc2ccccc2)N1c1ccc(Cl)cn1 (centres undefined)	x	x	1	-1	-0.6	0.73	3.8	x	i	0.2
CCN1C(=O)/C(=C\c2ccc(-c3ccc([N+](=O)[O-])cc3OC)o2)SC1=Nc1cccc(C(=O)O)c1	x	x	2	-16	38	0.64	15	12	i	14
CC(O)CN(C)CC/C=C1/c2ccccc2CSc2ccccc21 (centres undefined)	0.5	3	x	x	x	0.71	1.8	-9	x	x
CCOP(=O)(NC(c1ccccc1)c1nc2ccccc2[nH]c1=O)OCC (centres undefined)	0.7	-5	16	14	2.7	0.65	-54	-11	i	-1.0
Cc1cccc(NC(=O)CN(C)S(=O)(=O)c2cnc[nH]2)c1	-0.3	1	x	x	x	0.69	-0.5	-18	x	x

Not all compounds are listed (hit frequency here may not be typical).
